# Source: PubChem (Broad Institute)
# HIV Env fusion = inhibitors of HIV-1 Env-driven cell-cell fusion, primary screen, HeLa-JRFL effector, CEM21 target cells, luciferase; AID 651610, 2012; 360,000 tested, 1.1% active; inhibition, % at 12.3 µM;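 active = mean replicate inhibition score of at least 50 and every replicate individually at or above 50; inconclusive = only one of the two criteria met; inactive = mean below 50 and not all replicates reaching 50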;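 note: 0% = plate neutral controls and 100% = maraviroc near 300 nM; one replicate is shown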
# Yeast UUG start = modulators of yeast start codon fidelity, primary screen, whole organism, S. cerevisiae, single point, plate reader. activity score, % at 18.7 µM. AID 602363, 2012. 350,000 tested, 0.13% active. S. cerevisiae UUG-firefly luciferase reporter, luminescence/redox ratio;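 active = replicate mean at a twofold rise or more, about +100% in these data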;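 note: firefly luciferase made from a UUG start codon reports start codon fidelity; reporter light over untreated wells divided by growth signal over untreated wells; some hits fall short of that in this replicate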
# * marks the source's active call; other numbers are inactive results; i = inactive; ? = inconclusive; [ ] = dose if it differs, or a comment. These rows are one share of the data (hit frequency here may not be typical).
mol,HIV Env fusion,Yeast UUG start
C[C@@H](NC(=O)C[C@@H]1CC[C@H]2[C@@H](COC[C@@H](O)CN2C)O1)c1ccccc1,-18[16.7 µM],-12
CO[C@@H]1CN(C)C(=O)c2ccc(NC(=O)Nc3cc(F)ccc3F)cc2OC[C@@H](C)NC[C@@H]1C,12[16.7 µM],16
C[C@@H]1CN([C@@H](C)CO)C(=O)Cc2cc(NC(=O)C3CC3)ccc2O[C@H]1CN(C)Cc1ccccc1,-6[16.7 µM],-7
CC(C)NC(=O)N[C@H]1CC[C@H](CC(=O)NC2Cc3ccccc3C2)O[C@H]1CO,-18[16.7 µM],-7
CCCC#Cc1cnc2c(c1)C(=O)N([C@@H](C)CO)C[C@H](C)[C@@H](CN(C)C(=O)NC1CCCC1)O2,-7[16.7 µM],-2
COc1ccc(/C=C/C=O)cc1,-22[16.7 µM],-2
COc1ccc(NC(=O)Nc2cccc3c2O[C@H](CN(C)S(=O)(=O)c2cccs2)[C@H](C)CN([C@H](C)CO)C3=O)cc1,0[16.7 µM],7
O=C(C[C@H]1C=C[C@@H](NC(=O)C2CC2)[C@H](CO)O1)NCCCN1CCOCC1,5[16.7 µM],-15
COc1ccc(S(=O)(=O)Nc2ccc3c(c2)C(=O)N([C@@H](C)CO)C[C@@H](C)[C@H](CN(C)S(=O)(=O)c2c(C)noc2C)OCCCC[C@H](C)O3)cc1,-5[16.7 µM],1
COc1ccc(S(=O)(=O)N(C)C[C@H]2Oc3cc(-c4ccccc4OC)ccc3S(=O)(=O)N([C@H](C)CO)C[C@H]2C)cc1,35[16.7 µM],-12

# Structures from the list above that contain two or more sulfur atoms (three):
mol,HIV Env fusion,Yeast UUG start
COc1ccc(NC(=O)Nc2cccc3c2O[C@H](CN(C)S(=O)(=O)c2cccs2)[C@H](C)CN([C@H](C)CO)C3=O)cc1,0[16.7 µM],7
COc1ccc(S(=O)(=O)Nc2ccc3c(c2)C(=O)N([C@@H](C)CO)C[C@@H](C)[C@H](CN(C)S(=O)(=O)c2c(C)noc2C)OCCCC[C@H](C)O3)cc1,-5[16.7 µM],1
COc1ccc(S(=O)(=O)N(C)C[C@H]2Oc3cc(-c4ccccc4OC)ccc3S(=O)(=O)N([C@H](C)CO)C[C@H]2C)cc1,35[16.7 µM],-12

# In a second layout: entries from further up
# Values in the order: HIV Env fusion	Yeast UUG start
> C[C@@H](NC(=O)C[C@@H]1CC[C@H]2[C@@H](COC[C@@H](O)CN2C)O1)c1ccccc1
→ -18[16.7 µM]	-12
> CO[C@@H]1CN(C)C(=O)c2ccc(NC(=O)Nc3cc(F)ccc3F)cc2OC[C@@H](C)NC[C@@H]1C
→ 12[16.7 µM]	16
> C[C@@H]1CN([C@@H](C)CO)C(=O)Cc2cc(NC(=O)C3CC3)ccc2O[C@H]1CN(C)Cc1ccccc1
→ -6[16.7 µM]	-7
> CC(C)NC(=O)N[C@H]1CC[C@H](CC(=O)NC2Cc3ccccc3C2)O[C@H]1CO
→ -18[16.7 µM]	-7

# The list goes on:
mol,HIV Env fusion,Yeast UUG start
COc1ccc(NC(=O)N(C)C[C@H]2OCCCC[C@@H](C)Oc3ccc(NC(=O)CCCN(C)C)cc3C(=O)N([C@H](C)CO)C[C@@H]2C)cc1,-5[16.7 µM],10
O=C(C[C@@H]1C=C[C@H](NC(=O)NC2CCCCC2)[C@H](CO)O1)NCc1ccc(F)cc1,-9[16.7 µM],5
O=C(C[C@@H]1CC[C@@H](NC(=O)c2ccc(F)cc2)[C@H](CO)O1)NCCc1ccccc1,-8[16.7 µM],-7
C[C@@H]1CN([C@@H](C)CO)C(=O)c2cccc(NS(C)(=O)=O)c2O[C@@H]1CN(C)Cc1ccc(-c2ccccc2)cc1,1[16.7 µM],3
C[C@H]1CN([C@@H](C)CO)C(=O)c2cc(C3=CCCCC3)cnc2O[C@H]1CN(C)C(=O)c1cccc(F)c1,-1[16.7 µM],7
C[C@@H]1CCCCO[C@@H](CN(C)S(=O)(=O)c2cn(C)cn2)[C@H](C)CN([C@@H](C)CO)C(=O)c2cc(NC(=O)Nc3ccc(C(F)(F)F)cc3)ccc2O1,-10[16.7 µM],11
Cc1noc(C)c1S(=O)(=O)N(C)C[C@@H]1Oc2ccc(NC(=O)Nc3cccc4ccccc34)cc2CC(=O)N([C@H](C)CO)C[C@H]1C,1[16.7 µM],-16
C[C@H]1CN([C@@H](C)CO)C(=O)Cc2cc(NS(=O)(=O)c3cccs3)ccc2O[C@H]1CN(C)CC1CCCCC1,2[16.7 µM],13
C[C@@H]1CCCCO[C@H](CN(C)S(=O)(=O)c2ccc(F)cc2)[C@@H](C)CN([C@H](C)CO)C(=O)c2cc(NC(=O)Nc3cccc4ccccc34)ccc2O1,-10[16.7 µM],-9
C[C@H](CO)N1C[C@H](C)[C@@H](CN(C)S(=O)(=O)c2cccs2)OCCCC[C@H](C)Oc2ccc(NC(=O)CCC(F)(F)F)cc2C1=O,-12[16.7 µM],2

# (listing goes on)
mol,HIV Env fusion,Yeast UUG start
CC(C)c1cn(CC[C@H]2CC[C@@H](NC(=O)C3CCCC3)[C@@H](CO)O2)nn1,6[16.7 µM],9
C[C@@H]1CCCCO[C@@H](CN(C)S(=O)(=O)c2ccc(Cl)cc2)[C@H](C)CN([C@H](C)CO)C(=O)c2cc(NS(C)(=O)=O)ccc2O1,0[16.7 µM],5
CNC[C@H]1OCCCC[C@H](C)Oc2ccc(NS(=O)(=O)c3ccc(C)cc3)cc2C(=O)N([C@H](C)CO)C[C@H]1C,23[16.7 µM],5
C[C@@H]1CCCCO[C@@H](CN(C)C(=O)C2CCCCC2)[C@H](C)CN([C@@H](C)CO)C(=O)c2cc(NC(=O)Nc3cccc4ccccc34)ccc2O1,-10[16.7 µM],-19
CCS(=O)(=O)Nc1ccc2c(c1)C(=O)N(C)C[C@H](OC)[C@H](C)CN(C(C)=O)[C@@H](C)CO2,8[16.7 µM],3
C[C@H](CO)N1C[C@H](C)[C@H](CN(C)C(=O)Nc2ccc(F)cc2)Oc2ccc(NC(=O)Nc3cccc4ccccc34)cc2C1=O,5[16.7 µM],-11
O=C(NCC[C@@H]1CC[C@@H](NC(=O)C2CC2)[C@H](CO)O1)c1cnccn1,-13[16.7 µM],-22
COc1ccc(-c2cnc3c(c2)C(=O)N([C@@H](C)CO)C[C@@H](C)[C@H](CN(C)Cc2cccnc2)O3)cc1,0[16.7 µM],145*
C[C@H]1CN([C@@H](C)CO)C(=O)c2cc(C3=CCCCC3)cnc2O[C@H]1CN(C)CC1CCOCC1,i,7
C[C@H](CO)N1C[C@H](C)[C@@H](CN(C)C(=O)Nc2ccccc2)Oc2ccc(NS(=O)(=O)c3cn(C)cn3)cc2CC1=O,-18[16.7 µM],-13

# Continued.
Structure	HIV Env fusion	Yeast UUG start
O=C(Nc1ccccc1F)N[C@@H]1CC[C@H](CCNC(=O)C2CCCC2)O[C@@H]1CO	9[16.7 µM]	6
COc1ccc(S(=O)(=O)Nc2ccc3c(c2)CC(=O)N([C@@H](C)CO)C[C@H](C)[C@@H](CN(C)S(=O)(=O)c2ccc(Cl)cc2)O3)cc1	-19[16.7 µM]	-3
C[C@H](CO)N1C[C@H](C)[C@H](CN(C)Cc2cncnc2)Oc2cc(C#C[C@@H](C)O)ccc2S1(=O)=O	6[16.7 µM]	-10
Cc1ccccc1S(=O)(=O)N[C@H]1CC[C@H](CCn2cc(-c3ccc(F)cc3)nn2)O[C@H]1CO	5[16.7 µM]	48
CCC(=O)N(C)C[C@@H]1Oc2cc(/C=C/c3ccccc3)ccc2S(=O)(=O)N([C@H](C)CO)C[C@@H]1C	37[16.7 µM]	23
O=C(Nc1ccc(Cl)cc1)N[C@@H]1CC[C@H](CCn2cc(C3(O)CCCC3)nn2)O[C@H]1CO	-13[16.7 µM]	1
C[C@H](CO)N1C[C@H](C)[C@H](CN(C)Cc2ccncc2)Oc2ncc(C#Cc3ccccc3)cc2C1=O	6[16.7 µM]	-10
C[C@H]1CN([C@@H](C)CO)C(=O)c2cc(-c3ccc(F)cc3)cnc2O[C@@H]1CN(C)C(=O)c1cccnc1	22[16.7 µM]	-8
COc1ccc(NC(=O)N[C@H]2CC[C@@H](CCNC(=O)c3ccccc3F)O[C@H]2CO)cc1	11[16.7 µM]	-6
Cc1noc(C)c1NC(=O)Nc1ccc2c(c1)C(=O)N([C@H](C)CO)C[C@H](C)[C@@H](CN(C)C(=O)Nc1ccc(C(F)(F)F)cc1)OCCCC[C@H](C)O2	21[16.7 µM]	-11
C[C@@H]1CN([C@@H](C)CO)C(=O)c2cccc(NC(=O)C3CCOCC3)c2O[C@H]1CN(C)C(=O)NC1CCCCC1	10[16.7 µM]	-2
CNC(=O)C[C@@H]1CC[C@@H]2[C@@H](COc3ccc(NC(=O)C4CCCCC4)cc3C(=O)N2C)O1	-25[16.7 µM]	15

# Remaining list, next part
Structure	HIV Env fusion	Yeast UUG start
C[C@H](CO)N1C[C@H](C)[C@@H](CN(C)Cc2cccc(C(=O)O)c2)Oc2ncc(/C=C/c3ccccc3)cc2C1=O	-9[16.7 µM]	11
CCC(=O)N[C@H]1CC[C@@H](CCNS(=O)(=O)c2ccc(Cl)cc2)O[C@@H]1CO	-1[16.7 µM]	2
CN(C)CC(=O)Nc1ccc2c(c1)[C@H]1C[C@H](CC(=O)NCc3ccccn3)O[C@H](CO)[C@H]1O2	3[16.7 µM]	-20
C[C@@H]1CN([C@@H](C)CO)C(=O)c2cc(NC(=O)Nc3ccc(F)cc3)ccc2O[C@@H](C)CCCCO[C@H]1CN(C)Cc1ccc(C(=O)O)cc1	-1[16.7 µM]	18
C[C@@H]1CN([C@@H](C)CO)C(=O)c2cc(NC(=O)Cc3ccccc3)ccc2O[C@@H](C)CCCCO[C@@H]1CN(C)S(=O)(=O)c1ccc(Cl)cc1	8[16.7 µM]	1
C[C@@H]1CN([C@H](C)CO)C(=O)Cc2cc(NC(=O)C3CC3)ccc2O[C@@H]1CN(C)S(=O)(=O)c1cn(C)cn1	4[16.7 µM]	1
CCS(=O)(=O)NCC[C@@H]1CC[C@H](NC(=O)Cc2ccccn2)[C@@H](CO)O1	-11[16.7 µM]	3
CO[C@H]1CN(C)C(=O)c2cc(NC(=O)Nc3cc(F)ccc3F)ccc2OC[C@H](C)N(C(=O)c2ccccn2)C[C@@H]1C	4[16.7 µM]	6
Cc1noc(C)c1NC(=O)Nc1ccc2c(c1)C(=O)N([C@H](C)CO)C[C@@H](C)[C@H](CN(C)Cc1ccc(Cl)c(Cl)c1)OCCCC[C@H](C)O2	14[16.7 µM]	7
COc1ccc(S(=O)(=O)N(C)C[C@H]2Oc3c(NS(C)(=O)=O)cccc3C(=O)N([C@@H](C)CO)C[C@H]2C)cc1	-16[16.7 µM]	4
C[C@H]1CN([C@@H](C)CO)C(=O)c2cc(-c3ccc(C(=O)N(C)C)cc3)cnc2O[C@H]1CN(C)C(=O)CN(C)C	-25[16.7 µM]	-2
COc1ccc(-c2ccc([C@H]3[C@H](C#N)N(C(=O)C4CCCC4)[C@H]3CO)cc2)cc1	4[16.7 µM]	-24

# The list continues:
Structure	HIV Env fusion	Yeast UUG start
C[C@@H]1CN([C@@H](C)CO)C(=O)c2cc(C3=CCCC3)cnc2O[C@H]1CN(C)C(=O)C1CCOCC1	-14[16.7 µM]	1
Cc1noc(C)c1NC(=O)N(C)C[C@H]1OCCCC[C@H](C)Oc2ccc(NC(=O)c3ccncc3)cc2C(=O)N([C@@H](C)CO)C[C@@H]1C	3[16.7 µM]	2
C[C@H](CO)N1C[C@H](C)[C@@H](CN(C)Cc2ccncc2)Oc2ncc(-c3cccc(F)c3)cc2C1=O	16[16.7 µM]	42
CO[C@@H]1CN(C)C(=O)c2cc(NC(=O)c3cnccn3)ccc2OC[C@H](C)NC[C@@H]1C	10[16.7 µM]	-8
C=CCNC(=O)[C@H]1[C@@H]2C(=O)O[C@@H](c3ccccc3)[C@@H](c3ccccc3)N2[C@@H](c2ccc(O)cc2)[C@]12C(=O)N(C(=O)OCCOC)c1ccc(C#CCC(C(=O)OC)C(=O)OC)cc12	16[16.7 µM]	-14
CN1C(=O)c2cc(NC(=O)Nc3ccc(Cl)cc3)ccc2OC[C@H]2O[C@@H](CC(=O)O)CC[C@H]21	2[16.7 µM]	8
COCC#Cc1ccc2c(c1)O[C@@H](CN(C)Cc1ccccc1)[C@H](C)CN([C@@H](C)CO)S2(=O)=O	5[16.7 µM]	-2
COC(=O)C[C@@H]1CC[C@@H](NC(=O)Nc2ccc(C(F)(F)F)cc2)[C@H](CO)O1	-5[16.7 µM]	2
COc1ccc(-c2cn(CC[C@@H]3CC[C@@H](N)[C@H](CO)O3)nn2)cc1	-10[16.7 µM]	-17
CC(=O)Nc1ccc2c(c1)C(=O)N(C)[C@H]1CC[C@H](CC(=O)NC3CCCCC3)O[C@H]1CO2	7[16.7 µM]	-8
CCCC(=O)Nc1ccc2c(c1)OC[C@@H](C)N(Cc1cc(F)ccc1F)C[C@@H](C)[C@H](OC)CN(C)C2=O	10[16.7 µM]	2
COc1ccc(CN(C)C[C@@H]2OCCCC[C@H](C)Oc3ccc(NC(=O)Nc4ccc5c(c4)OCO5)cc3C(=O)N([C@@H](C)CO)C[C@@H]2C)cc1	?	3
O=C(C[C@@H]1CC[C@H](NC(=O)Nc2ccc(C(F)(F)F)cc2)[C@@H](CO)O1)NCc1cccc(F)c1	12[16.7 µM]	-2
C[C@H](CO)N1C[C@H](C)[C@H](CN(C)Cc2ccc(C(=O)Nc3ccccc3N)cc2)OCc2cn(nn2)CCCC1=O	1[16.7 µM]	-2
